Screening data as filed in PubChem.
Rango dissoc inh – qHTS Assay for Inhibitors of RanGTP induced Rango (Ran-regulated importin-beta cargo) - Importin beta complex dissociation; Snurportin-1 (Homo sapiens) + GTP-binding nuclear protein Ran (Homo sapiens) + Importin …; Biochemical FRET Rango-importin beta, RanGTP-induced dissociation; Potency, µM (titrated, usually from 46.1 µM), inactives show at the top dose activity change, negative = inhibition; hit rate 0.071% among 340,000; active means falling FRET ratio curve, often poorly fitted, with flat reads before Ran was added; inconclusive means other falling curves, or compound fluorescence or quenching; inactive means flat or rising ratio curve;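 also: potency is read from the fitted curve at half-maximal effect; % of control where 0% means no effect; nearly all actives have a fitted effect of over 45% in size; -100% = wells without RanGTP and RCC1; the record marks most hits as doubtful in a second field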
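Rango (0.1 uM)–importin beta (0.25 uM) complex; RanGTP-RCC1 trigger; 45 min RT; CFP/YFP FRET read.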
miR-21 reporter – qHTS Assay for Modulators of miRNAs and/orActivators of miR-21; Potency, µM (highest dose often 38.3 µM), for inactives: top-dose reporter change, positive = more light; 340,000 tested, under 10 active; HeLa miR-21 FLuc reporter, luciferase, 48 h; active = well fitted rising curve with a large enough effect; inconclusive = small, poorly fitted or top-dose-only effect; inactive = no such curve, though single readings can be large or run the other way;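 also: % of control where 0% means no effect; miR-21 action dims this reporter so a rising signal means less miR-21 action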
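HeLa miR-21-FLuc reporter line, endogenous miR-21; 2000 cells/well in DMEM/10% FBS; compound titration up to ~40uM final, 48 h, 37 degree Celsius; luciferase detection reagent, 15 min lysis, CCD luminescence.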
Rango-impB inh – qHTS Assay for Inhibitors of Rango (Ran-regulated importin-beta cargo) - Importin beta complex formation. hit rate 0.031% among 340,000. Potency, µM (doses to about 92.2 µM), for inactives: at the top dose inhibition of complex formation. Rango CFP/YFP FRET sensor + importin beta, 45 min. AID 540263, 2011. Importin subunit beta-1 (Homo sapiens), Q14974; active = rising FRET ratio curve, often small or poorly fitted; inconclusive = mostly compound fluorescence or quenching in the first reads; inactive = flat curves in all reads;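 also: potency is read from the fitted curve at half-maximal effect; 0% = DMSO wells and 100% = buffer wells lacking importin beta; nearly all actives have a fitted effect of over 15% in size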
Target sequence (Q14974 whole entry, looked up): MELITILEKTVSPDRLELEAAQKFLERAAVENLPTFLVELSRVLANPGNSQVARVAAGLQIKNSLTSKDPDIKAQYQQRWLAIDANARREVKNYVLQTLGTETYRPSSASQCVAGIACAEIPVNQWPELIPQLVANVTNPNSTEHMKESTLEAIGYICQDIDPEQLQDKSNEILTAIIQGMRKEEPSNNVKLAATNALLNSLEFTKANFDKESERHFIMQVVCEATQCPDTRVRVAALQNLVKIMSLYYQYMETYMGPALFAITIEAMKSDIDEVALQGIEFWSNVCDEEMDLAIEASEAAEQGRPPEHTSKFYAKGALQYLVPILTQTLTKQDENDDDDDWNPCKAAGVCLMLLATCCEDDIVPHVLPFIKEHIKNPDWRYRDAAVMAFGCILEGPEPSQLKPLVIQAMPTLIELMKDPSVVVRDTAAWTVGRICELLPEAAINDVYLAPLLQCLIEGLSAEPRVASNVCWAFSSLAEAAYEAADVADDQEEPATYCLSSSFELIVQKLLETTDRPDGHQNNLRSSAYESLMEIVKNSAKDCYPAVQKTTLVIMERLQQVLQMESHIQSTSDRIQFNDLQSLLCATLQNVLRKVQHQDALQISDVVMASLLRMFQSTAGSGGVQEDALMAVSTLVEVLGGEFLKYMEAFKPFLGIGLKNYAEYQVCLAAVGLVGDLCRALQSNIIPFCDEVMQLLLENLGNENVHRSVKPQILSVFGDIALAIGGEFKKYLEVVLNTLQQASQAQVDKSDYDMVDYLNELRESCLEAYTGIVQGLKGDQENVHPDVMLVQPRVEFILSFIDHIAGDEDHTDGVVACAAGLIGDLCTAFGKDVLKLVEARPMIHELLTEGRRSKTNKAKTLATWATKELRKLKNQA
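Inhibition scored from the CFP 486 nm/YFP 530 nm FRET ratio 45 min after adding 0.125 microM importin beta to 50 nM Rango biosensor preincubated 5 min with compound (room temperature, PBS with DTT, Tween-20, BSA). No-importin wells as positive control.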
GLA inh pH 4.5 – qHTS Assay for Inhibitors of Human alpha-Galactosidase at pH 4.5. Alpha-galactosidase A (Homo sapiens), P06280. purified enzyme, 4-MU-alpha-Gal fluorescence, pH 4.5. activity change, negative = inhibition, % at 105 µM. 230,000 tested, under 10 active; inconclusive = small, poorly fitted or top-dose-only inhibition, or a rising curve; inactive = flat fitted curve, though single readings scatter; no compound was filed as active;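 also: 0% = full activity with enzyme and -100% = basal without enzyme; dose as in the result columns while the protocol names 77 µM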
* marks the source's active call; other numbers are inactive results; ? = inconclusive; nt = not tested or not shown; & = joins results of further samples. Not all compounds are listed; count on the stated rates, not on these rows.

compound	Rango dissoc inh	miR-21 reporter	Rango-impB inh	GLA inh pH 4.5
CCOC(=O)C1Cc2ccccc2C(=O)O1 (stereo unspecified)	-11%	-3%	-1.5%	0
CNC(=O)COC(=O)c1cc2c(s1)CCCC2	10%	-25%	2.6%	7
CCOc1ccc(NC(=O)CN(C)C(=O)c2ccc(-c3ccc(C(C)=O)cc3)o2)cc1OCC	0%	nt	2.5%	nt
O=C(c1cccnc1Nc1ccccc1F)N1CCOCC1	4%	2%	2.6%	-2
COc1ccccc1CNC(=O)c1cc(-c2cccnc2)nc2ccccc12	7%	15%	-5.3%	3
CCCOC(=O)c1ccc(NC(=O)COC(=O)C2CCN(c3ccc(C(F)(F)F)cn3)CC2)cc1	7%	nt	-1.0%	nt
OCC1(Cc2ccccc2)CCCN(Cc2ccn[nH]2)C1 (stereo unspecified)	2%	-2%	-3.1%	-3
CCOC(=O)C1CCCN(C(=O)c2csc(-c3ccc4c(c3)CCO4)n2)C1 (stereo unspecified)	-9%	-21%	-1.9%	3
Cc1ccc(OCCC(=O)OCC(=O)NC(=O)NC2CCCC2)cc1	18%	nt	2.5%	nt
CCCCCCCC1(C)NC(=O)NC1=O (stereo unspecified)	7%	0%	-4.2%	12
c1nc(N2CCOCC2)c2c3c(sc2n1)CCCC3	-2%	-16%	0.7%	-1
C[C@H](CO)N1C[C@H](C)[C@H](CN(C)C(=O)Nc2ccc(F)cc2)Oc2ccc(NC(=O)NC3CCCCC3)cc2CC1=O	-13%	nt	2.2%	nt
Cc1cccc(C(=O)NCC(=O)NCC(c2ccco2)N2CCCCC2)c1 (stereo unspecified)	10%	nt	0.9%	nt
COc1cc(/C=C(\C#N)C(=O)NCC2CCCO2)ccc1O (stereo unspecified)	?	-4%&-6%	?	-6
O=C(NCCc1ccc(Cl)cc1)c1ccc2nccnc2c1	-5%	-24%	2.2%	nt

Looked up by compound from the entries so far:
compound	Rango dissoc inh	miR-21 reporter	Rango-impB inh	GLA inh pH 4.5
CCOc1ccc(NC(=O)CN(C)C(=O)c2ccc(-c3ccc(C(C)=O)cc3)o2)cc1OCC	0%	nt	2.5%	nt
CCOC(=O)C1CCCN(C(=O)c2csc(-c3ccc4c(c3)CCO4)n2)C1 (stereo unspecified)	-9%	-21%	-1.9%	3

Next section:
compound	Rango dissoc inh	miR-21 reporter	Rango-impB inh	GLA inh pH 4.5
COC(=O)Cn1c2ccccc2c2nc(=O)cc(C)n21	14%	0%	0.3%	-14
COc1ccc(C2c3c(noc3C)CC(C)(O)C2C(C)=O)cc1 (stereo unspecified)	-19%	1%	1.9%	-5
O=C1CC2(CCCC2)Oc2ccc(F)cc21	0%	nt	-2.4%	nt
O=C(NCc1ccc(Cl)cc1)c1ccc(COCC(F)(F)F)o1	18%	0%	-4.2%	-5
CC(CNC(=O)Cn1ccc(NC(=O)OCc2ccccc2)nc1=O)c1ccccc1 (stereo unspecified)	9%	nt	-0.3%	nt
COc1cccc(C2/C(=C(/O)c3ccc(F)cc3)C(=O)C(=O)N2CCN(C)C)c1 (stereo unspecified)	10%	-2%	0.3%	-16
COc1cccc(-c2nn3c(-c4cc(C)[nH]n4)nnc3s2)c1	1%	-20%	3.9%	-2
COc1cc(CNC(C)(C)CO)ccc1OCC(=O)Nc1ccc(Br)cc1	0%	-28%	-0.6%	4
Cc1ccc(C(=O)Nc2ccc(S(=O)(=O)N3CCOCC3)cc2)cc1Br	17%	nt	-0.9%	nt
CN(C)c1ccc(/C=C2\SC(N3CCCCC3)=NC2=O)cc1	?	-33%	?	nt
CCN(CC(=O)NCc1ccc(Cl)cc1)C(=O)c1cc(S(=O)(=O)N2CCOCC2)ccc1C	-2%	nt	-0.8%	nt
CCOc1cc(/C=C(/C#N)c2nc3ccccc3[nH]2)ccc1Oc1ccc([N+](=O)[O-])cn1	?	-9%	?	0
CC(C)CCC1(CCNC(C)c2cccs2)CCOC(C)(C)C1 (stereo unspecified)	17%	-3%	-0.5%	-11
NC(=O)c1nc[nH]c1C(=O)Nc1cccc(NC(=O)c2cccc(C(F)(F)F)c2)c1	0%	nt	-1.3%	nt
Cc1cccc(C)c1OCC(=O)Nn1c(=O)[nH]c2ccccc2c1=O	-2%	0%	4.4%	3

Remaining list, next part.
compound	Rango dissoc inh	miR-21 reporter	Rango-impB inh	GLA inh pH 4.5
O=C(COc1coc(CN2CCc3ccccc32)cc1=O)NCCc1ccccc1	-3%	nt	-1.4%	nt
O=C(NC1CCCCC1)C12CC3CC(CC(Cl)(C3)C1)C2	14%	-3%	0.4%	-2
Cc1cccc(OCCCC(=O)NNC(=O)c2ccncc2)c1	-3%	nt	-0.7%	nt
Cc1ccc(S(=O)(=O)N2CC(C)N(C(=O)N3CCOCC3)C2)cc1 (stereo unspecified)	-2%	-1%	1.7%	nt
Cc1cc(NC(=O)CSc2nc3c(cnn3-c3cccc(Cl)c3)c(=O)[nH]2)no1	-6%	nt	-2.2%	nt
COC(=O)Cc1ccc(NC(=S)NNC(=O)c2ccccc2Br)cc1	12%	-22%	-3.8%	4
O=C(OCC(=O)N1CCC(Cc2ccccc2)CC1)c1ccccc1	-7%	5%	-1.4%	0
O=C(NC(=S)Nc1ccc(Br)cn1)c1cccs1	1%	-60%	6.3%	3
CCc1ccc2c(c1)cc(CN(C(=S)Nc1ccccc1)C1CC1)c1nnnn12	5%	-3%	1.0%	1
Cc1noc(C)c1C(=O)NCCc1ccccc1	-11%	-12%	1.8%	7
Cc1ccc(S(=O)(=O)CC2CSc3nc(N)cc(=O)n32)cc1 (stereo unspecified)	-3%	-6%	-1.8%	-1
Clc1cccc(/C=N/N2CCN(Cc3ccccc3)CC2)c1	-9%	-39%	-2.9%	nt
COc1cccc(CC(NC(C)=O)C(=O)NC2CCN(C(=O)Nc3ccc(C)cc3)CC2)c1 (stereo unspecified)	13%	0%	3.3%	nt
O=C(CCc1ccccc1)Nc1nnc(-c2ccc3c(c2)OCCO3)o1	-4%	-12%	?	0
COC(=O)[C@]1(C)N[C@H](CN(C)C(=O)c2ccc(C)cc2)[C@@H]2C(=O)N(C)C(=O)[C@@H]21	0%	nt	1.2%	nt

(further entries)
compound	Rango dissoc inh	miR-21 reporter	Rango-impB inh	GLA inh pH 4.5
CCCCCC(=O)N1CCCC1	-8%	0%	0.5%	-20
CC(=O)c1cccc(OCc2cc(C(=O)N3C[C@@H](C)O[C@@H](C)C3)no2)c1	0%	-51%	-3.3%	nt
COc1ccc(-c2oc3ncnc(NCCN4CCOCC4)c3c2-c2ccc(OC)cc2)cc1	6%	-33%	-1.2%	0
O=c1cc(C=NNc2ccccc2)[nH]c(=O)[nH]1	-4%	nt	-4.6%	nt
O=C(COC(=O)Cc1ccccc1F)Nc1ccccc1[N+](=O)[O-]	0%	nt	-4.2%	nt
CN1CCN(c2ccc(S(=O)(=O)N3CCCCC3)cc2NC(=O)c2cccc([N+](=O)[O-])c2)CC1	?	-6%	4.5%	4
CCN(c1ccccc1)S(=O)(=O)c1ccc(C(=O)NCC(c2cccs2)N(C)C)cc1 (stereo unspecified)	-13%	2%	2.2%	-5
O=C(Nc1ccc(F)cc1)C1=CC(=O)N2CCN=C2S1	nt	5%	nt	2
O=C(C[C@H]1C(=O)N(c2ccc(F)c(F)c2)C[C@@H]1Cc1ccccc1)Nc1ccccc1	-1%	13%	1.2%	nt
CC(=O)Nc1ccc2nc(NC(=O)c3ccc([N+](=O)[O-])o3)sc2c1	-1%	12%	0.6%	nt
C[C@H]1NC(=O)[C@]2(C)[C@@H](c3ccccc3)[C@H]3COc4ccccc4[C@@H]3N2C1=O	20%	nt	0.6%	nt
COc1ccccc1N1CCN(S(=O)(=O)CCNC(=O)c2cc(OC)c(OC)c(OC)c2)CC1	4%	28%	3.6%	nt
Nn1c(SCC(=O)Nc2ccc3c(c2)OCO3)nncc1=O	2%	-3%	2.5%	-3
CCCCn1c(N)c(N(CC(C)C)C(=O)COC(=O)Cc2cccc(OC)c2)c(=O)[nH]c1=O	4%	nt	-1.1%	nt
CCN1CCN(C(=O)CN(c2ccc(F)c(Cl)c2)S(C)(=O)=O)CC1	-4%	-4%	-0.4%	-3

Going on with the list.
compound	Rango dissoc inh	miR-21 reporter	Rango-impB inh	GLA inh pH 4.5
CC(C)(C)C(=O)Nc1ccnn1C1CCN(C(=O)c2cccc(Cl)c2)CC1	-12%	-5%	-2.5%	nt
COc1cccc(OC)c1NC(=O)C1CCCN1C(=O)NCc1ccccc1 (stereo unspecified)	3%	-8%	-2.5%	-1
O=C(/C=C/c1ccc(F)cc1)N1CCCc2ccccc21	-5%	-47%	-2.6%	-3
Cc1ccc(S(=O)(=O)N2CCOCC2)cc1NC(=O)CSc1ccc(Cl)cc1	9%	nt	-0.2%	nt
O=C(Nc1c[nH]c(=O)[nH]c1=O)c1ccccc1Br	21%	-4%	0.3%	nt
COc1nccnc1NS(=O)(=O)c1ccc(NC(=S)NC(=O)c2ccc(F)cc2)cc1	-15%	-3%	-1.3%	1
CCOC(=O)Cn1cnc2c(cnn2-c2ccc(OC)cc2)c1=O	-6%	-23%	-0.6%	nt
CNC1=CC(=O)CC(c2ccccc2)C1 (stereo unspecified)	-1%	0%	-2.5%	11
Cc1cccc(NC(=O)CSCC(=O)Nc2cc(S(=O)(=O)N3CCOCC3)ccc2OC(C)C)c1	6%	nt	?	nt

Of the compounds above, these contain an NH in an aromatic ring.
compound	Rango dissoc inh	miR-21 reporter	Rango-impB inh	GLA inh pH 4.5
OCC1(Cc2ccccc2)CCCN(Cc2ccn[nH]2)C1 (stereo unspecified)	2%	-2%	-3.1%	-3
COc1cccc(-c2nn3c(-c4cc(C)[nH]n4)nnc3s2)c1	1%	-20%	3.9%	-2
CCOc1cc(/C=C(/C#N)c2nc3ccccc3[nH]2)ccc1Oc1ccc([N+](=O)[O-])cn1	?	-9%	?	0
NC(=O)c1nc[nH]c1C(=O)Nc1cccc(NC(=O)c2cccc(C(F)(F)F)c2)c1	0%	nt	-1.3%	nt
Cc1cccc(C)c1OCC(=O)Nn1c(=O)[nH]c2ccccc2c1=O	-2%	0%	4.4%	3
Cc1cc(NC(=O)CSc2nc3c(cnn3-c3cccc(Cl)c3)c(=O)[nH]2)no1	-6%	nt	-2.2%	nt
O=c1cc(C=NNc2ccccc2)[nH]c(=O)[nH]1	-4%	nt	-4.6%	nt
CCCCn1c(N)c(N(CC(C)C)C(=O)COC(=O)Cc2cccc(OC)c2)c(=O)[nH]c1=O	4%	nt	-1.1%	nt
O=C(Nc1c[nH]c(=O)[nH]c1=O)c1ccccc1Br	21%	-4%	0.3%	nt
